DUX4 inh: DUX4-mediated transcription inhibition | 293T-iDUX4 ZSCAN4-Gaussia luciferase reporter, 24 h; hits give low values | activity change, negative = inhibition, % (concentration not given with the values) | 0.8% of 37,000 active | AID 1224904;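 active = -10% or lower and over 25 points stronger than a control reporter; inconclusive = -10% or lower with a smaller gap; inactive = above -10%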;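 note: 0% = median of neutral control wells and -100% = median of positive control wells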
DUX4 inh difference: also measured in DUX4 inh; calls as there; Gaussia minus Italica difference, %; measured here: selective DUX4 reporter inhibition;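 worked out from the two reporters; negative = selective loss of the DUX4 reporter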
DUX4 inh control: also measured in DUX4 inh; calls as there; activity change, negative = inhibition, %; measured here: Italica tet-on control reporter;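 0 = neutral control and -100 = positive control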
Active calls of the source: *; ? = inconclusive; / = no result given; & = joins results of further samples. These rows are one share of the data (hit frequency here may not be typical).

Values run as follows: DUX4 inh	DUX4 inh difference	DUX4 inh control
- C[C@H](CO)N1C[C@H](C)[C@@H](CN(C)Cc2ccc(Oc3ccccc3)cc2)Oc2c(NC(=O)CCC(F)(F)F)cccc2C1=O
 : 7	8	-1.1
- O=C(C1CCC1)N1CC2(C1)[C@H](c1ccccc1)[C@@H](CO)N2Cc1cccnc1
 : 1	2	-0.6
- O=C(C[C@H]1CC[C@@H]2NC[C@H](O)COC[C@H]2O1)NCc1ccc(Oc2ccccc2)cc1
 : 1	0	0.2
- C[C@H](CO)N1C[C@H](C)[C@@H](CN(C)C(=O)c2ccc3ccn(C)c3c2)OCc2cnnn2CCCC1=O
 : 17	8	8.7
- O=C(CC1CC1)N1[C@@H](CO)[C@@H](c2ccccc2)C12CN(S(=O)(=O)c1ccccc1)C2
 : ?	/	/
- COc1ccccc1S(=O)(=O)N(C)C[C@@H]1OCc2ccccc2-c2c(n(C)c3ccccc23)C(=O)N([C@@H](C)CO)C[C@@H]1C
 : ?	/	/
- CCCNC(=O)C[C@@H]1CC[C@@H]2[C@H](COC[C@@H](O)CN2C(=O)Nc2cccc(Cl)c2)O1
 : 0	-2	2.2
- N#C[C@H]1[C@H](c2ccccc2-c2cccc(F)c2)[C@H](CO)N1C(=O)C1CCC1
 : -1	-7	6.5
- Cc1noc(C)c1S(=O)(=O)N(C)C[C@@H]1OCCCC[C@@H](C)Oc2ccc(NC(=O)Nc3cccc4ccccc34)cc2C(=O)N([C@H](C)CO)C[C@@H]1C
 : -1	15	-16
- CC=Cc1ccc2n(c1=O)C[C@@H]1[C@@H](CO)[C@H](C(=O)NCc3cccc(F)c3)[C@H]2N1S(C)(=O)=O (mixture of isomers)
 : 0	-3	3.2
- COc1cccc(CN2[C@H](CO)[C@@H](c3ccccc3)C23CN(Cc2ccccc2)C3)c1
 : ?	/	/
- Cc1ccccc1-c1ccc([C@@H]2[C@H]3CN(C(=O)Nc4cccc(F)c4)CCCCN3[C@H]2CO)cc1
 : -43*	-38*	-5.2*
- CC(C)[C@H]1C(=O)N[C@H](c2cccc(Cl)c2)CC=CC[C@H](C)Oc2ccccc2C(=O)N1C (mixture of isomers)
 : -6	-1	-4.8
- O=C(C[C@@H]1C[C@@H]2c3cc(NC(=O)NC4CCCC4)ccc3O[C@@H]2[C@H](CO)O1)NCC1CC1
 : -1	-10	9.1
- COc1ccccc1-c1ccc(C2[C@H]3CNC[C@@H]2N3Cc2nccs2)cc1 (stereo partly specified)
 : 14&-3	5&-3	9.5&-0.5
- COc1ccccc1-c1ccc2n(c1=O)C[C@@H]1[C@@H](CO)[C@H](C(=O)NCc3ccccn3)[C@H]2N1C
 : ?	/	/
- CCCNC(=O)N1[C@@H](C#N)[C@H](c2ccccc2-c2ccccc2F)[C@@H]1CO
 : 8	3	5.7
- O=C(C[C@H]1CC[C@H]2[C@@H](COC[C@@H](O)CN2Cc2ccc(F)cc2)O1)NCCc1ccccc1
 : -2	-4	2.4
- COc1ccc2c3c([nH]c2c1)[C@@H](CO)N(C(C)=O)CC31CN(Cc2ccccc2Cl)C1
 : ?	/	/
- O=C(C[C@@H]1C[C@H]2c3cc(NS(=O)(=O)c4ccc(F)cc4)ccc3O[C@H]2[C@H](CO)O1)NCc1ccc(Cl)cc1
 : ?	/	/
- CO[C@@H](CN(C)Cc1cc(F)ccc1F)[C@H](C)CN([C@@H](C)CO)S(=O)(=O)c1ccc(C)cc1
 : 2	-3	5.0
- CN1C(=O)c2cc(NC(=O)Nc3cccc(Cl)c3)ccc2OC[C@H]2O[C@@H](CC(=O)NCCc3ccncc3)CC[C@H]21
 : 5	3	1.9
- COc1cccc(S(=O)(=O)N(C)C[C@H]2OCc3cnnn3CCCC(=O)N([C@H](C)CO)C[C@@H]2C)c1
 : 1	2	-1.3
- O=C(C[C@H]1C=C[C@H](NC(=O)c2ccccn2)[C@@H](CO)O1)NCc1cccc(F)c1
 : 4	-1	4.7
- O=C([C@@H]1[C@@H](CO)[C@@H]2Cn3c(ccc(-c4ccc(F)cc4)c3=O)[C@H]1N2)N1CCCCC1
 : 2	7	-5.1
- COc1ccc(S(=O)(=O)N(C)C[C@@H]2Oc3ccc(NC(=O)CCCCCC(=O)Nc4ccccc4N)cc3C(=O)N([C@H](C)CO)C[C@H]2C)cc1
 : -2	-1	-1.2
- CC(C)NC[C@H]1[C@@H](c2ccc(C3=CCCCC3)cc2)[C@@H](CO)N1C(=O)NC(C)C
 : ?	/	/
- CO[C@@H]1CN(C)C(=O)c2cc(NS(=O)(=O)CC(F)(F)F)ccc2OC[C@H](C)N(Cc2cccnc2)C[C@H]1C
 : 0	3	-2.5
- C[C@@H]1CN([C@@H](C)CO)C(=O)c2c(c3ccccc3n2C)-c2ccccc2CO[C@H]1CN(C)Cc1ccc2c(c1)OCCN2C
 : ?	/	/
- COc1ccc2c3c(n(C)c2c1)[C@H](CO)N(C(=O)C1CCCC1)CC31CCN(C(=O)CC2CC2)CC1
 : 6	3	3.0
- O=C(c1ccccc1)N1CC2(C1)[C@H](c1ccccc1)[C@H](CO)N2Cc1cc(F)ccc1F
 : ?	/	/
- C[C@@H]1CC=CC[C@H](c2ccc(F)cc2)NC(=O)[C@@H](Cc2ccccc2)N(C)C(=O)c2ccccc2O1 (mixture of isomers)
 : -3	-1	-1.9
- CO[C@@H](CN(C)S(=O)(=O)c1ccccc1)[C@H](C)CN(C(=O)Nc1ccccc1F)[C@H](C)CO
 : -3	-5	2.1
- C[C@@H]1CN([C@@H](C)CO)C(=O)c2cc(C#CCc3ccccc3)cnc2O[C@H]1CN(C)CC1CCOCC1
 : -4	-2	-1.8
- N#C[C@@H]1[C@@H](c2ccc(/C=C/c3ccccc3)cc2)[C@@H](CO)N1C(=O)C1CCC1
 : 0	-6	6.2
- O=C(O)C[C@@H]1CC[C@H](NC(=O)c2ccccc2F)[C@H](CO)O1
 : 3	1	1.6
- O=C(NC[C@H]1N[C@H](CO)[C@@H]1c1ccccc1)C1CCC1
 : 1	-1	1.9
- C[C@H](CO)N1C[C@H](C)[C@H](CN(C)C(=O)Nc2cccc3ccccc23)Oc2ncccc2C1=O
 : 2	1	0.5
- N#C[C@H]1[C@H](c2ccc(C#Cc3ccccc3F)cc2)[C@H](CO)N1C(=O)C1CC1
 : 0	-2	2.3
- O=C(O)C[C@@H]1C=C[C@H](NC(=O)Nc2cc(F)ccc2F)[C@@H](CO)O1
 : 3	-1	3.8
- O=C(CN1CCOCC1)N[C@@H]1CC[C@H](CCNC(=O)Nc2cc(F)ccc2F)O[C@@H]1CO
 : 8	5	3.9
- C[C@@H]1CN([C@H](C)CO)C(=O)CCCn2nncc2CO[C@H]1CN(C)Cc1cccc(C(F)(F)F)c1
 : -1	2	-2.4
- COc1ccc2c3c(n(C)c2c1)[C@H](CO)N(CC1CC1)CC31CN(C(=O)c2ccc3c(c2)OCO3)C1
 : ?	/	/
- C[C@H]1CCCCO[C@@H](CN(C)C(=O)Nc2ccccc2)[C@@H](C)CN([C@@H](C)CO)C(=O)c2cc(NC(=O)Nc3ccccc3)ccc2O1
 : 0	0	0.0
- CCC(=O)NC[C@@H]1[C@H](c2ccc(C3=CCCC3)cc2)[C@H](CO)N1C(C)=O
 : 1	-2	2.9
- C[C@@H]1CN([C@H](C)CO)C(=O)CCCn2cc(nn2)CO[C@H]1CN(C)Cc1ccc(C(F)(F)F)cc1
 : -6	-2	-4.2
- O=C(C1CC1)N1CC2(C1)[C@H](c1ccccc1)[C@H](CO)N2CCC(F)(F)F
 : 3	-9	12
- CO[C@@H](CN(C)C(=O)c1ccccc1F)[C@H](C)CN([C@@H](C)CO)S(=O)(=O)c1ccc(C)cc1
 : -3	-3	-0.3
- C[C@@H]1CN([C@@H](C)CO)C(=O)CCCn2nncc2CO[C@@H]1CN(C)C(=O)Nc1ccc2c(c1)OCCO2
 : 4	6	-2.7
- CCCN1[C@@H]2c3ccc(-c4ccccc4)c(=O)n3C[C@H]1[C@H](CO)[C@H]2C(=O)N1CCCCC1
 : 2	-4	6.3
- C[C@@H]1CN([C@H](C)CO)C(=O)c2ccccc2-c2ccccc2CO[C@@H]1CN(C)Cc1ccc(-c2ccccc2)cc1
 : ?	/	/
- COCC(=O)Nc1ccc2c(c1)[C@@H]1C[C@@H](CC(=O)N(C)C)O[C@@H](CO)[C@@H]1O2
 : 8	4	3.7
- CO[C@H]1CN(C)C(=O)c2ccc(NC(=O)Nc3ccc(Cl)cc3)cc2OC[C@@H](C)N(C(=O)Nc2c(C)noc2C)C[C@H]1C
 : -9	-4	-5.7
- COc1ccc2c3c([nH]c2c1)[C@H](CO)N(C(=O)c1ccccc1)CC31CN(C)C1
 : 14	4	9.9
- O=C(Nc1ccc(F)cc1)N1CC(=O)N2[C@H](CO)[C@H](c3ccc(C#CC4CC4)cc3)[C@@H]2C1
 : -3	3	-6.4
- C/C=C/c1ccc([C@H]2[C@@H](CO)N(CC3CCCCC3)[C@H]2CNC(C)=O)cc1
 : -5	-10	4.4
- CO[C@@H]1CN(C)C(=O)c2cc(NS(=O)(=O)CC(F)(F)F)ccc2OC[C@@H](C)N(Cc2ccccn2)C[C@@H]1C
 : 2	-3	4.9
- C/C=C/c1ccc([C@H]2[C@@H](CO)N(C(=O)C3CC3)[C@H]2CN(C)C(=O)C2CC2)cc1
 : -10	-9	-1.4
- Cc1noc(C)c1NC(=O)N(C)C[C@H]1OCCCC[C@H](C)Oc2ccc(N(C)C)cc2C(=O)N([C@H](C)CO)C[C@H]1C
 : 0	3	-2.2
- CCCNC(=O)N1C[C@H]2[C@@H](c3ccccc31)[C@@H](CO)N2Cc1ccc(F)cc1
 : 0	1	-0.9

3 compounds from above, sorted by molar mass, largest number first.
Values run as follows: DUX4 inh	DUX4 inh difference	DUX4 inh control
- C[C@@H]1CN([C@@H](C)CO)C(=O)CCCn2nncc2CO[C@@H]1CN(C)C(=O)Nc1ccc2c(c1)OCCO2
 : 4	6	-2.7
- C[C@@H]1CN([C@H](C)CO)C(=O)CCCn2cc(nn2)CO[C@H]1CN(C)Cc1ccc(C(F)(F)F)cc1
 : -6	-2	-4.2
- O=C(C[C@H]1CC[C@H]2[C@@H](COC[C@@H](O)CN2Cc2ccc(F)cc2)O1)NCCc1ccccc1
 : -2	-4	2.4

Of the compounds above, two contain an NH in an aromatic ring:
Values run as follows: DUX4 inh	DUX4 inh difference	DUX4 inh control
- COc1ccc2c3c([nH]c2c1)[C@@H](CO)N(C(C)=O)CC31CN(Cc2ccccc2Cl)C1
 : ?	/	/
- COc1ccc2c3c([nH]c2c1)[C@H](CO)N(C(=O)c1ccccc1)CC31CN(C)C1
 : 14	4	9.9

Following part
Values run as follows: DUX4 inh	DUX4 inh difference	DUX4 inh control
- O=C(C[C@@H]1CC[C@@H]2[C@H](COC[C@H](O)CN2S(=O)(=O)c2ccc(Oc3ccccc3)cc2)O1)NCCN1CCCCC1
 : ?	/	/
- CCCC#Cc1cnc2c(c1)C(=O)N([C@H](C)CO)C[C@@H](C)[C@@H](CN(C)C(=O)C1CCC1)O2
 : -5	-2	-2.6
- CC(C)NC(=O)N1CC2(C1)[C@@H](c1ccccc1)[C@@H](CO)N2C(=O)C1CCC1
 : 8	9	-1.4
- CCNC(=O)[C@H]1[C@H](CO)[C@H]2Cn3c(ccc(-c4cncnc4)c3=O)[C@H]2N1C(=O)c1ccccc1F
 : -6	-5	-0.3
- COCC(=O)Nc1ccc2c(c1)C(=O)N(C)C[C@H](OC)[C@H](C)CN(Cc1ccccn1)[C@@H](C)CO2
 : 1	0	1.0
- Cc1ccccc1-c1cnc2c(c1)C(=O)N([C@H](C)CO)C[C@H](C)[C@H](CN(C)C(=O)c1ccncc1)O2
 : 3	0	2.8
- COC(=O)C[C@H]1CC[C@H]2[C@@H](COc3ccc(NC(=O)CN(C)C)cc3C(=O)N2C)O1
 : -2	0	-1.7
- COCC(=O)N1CC2(C1)[C@H](c1ccc(-c3cccc(F)c3)cc1)[C@H](CO)N2C(=O)COC
 : 3	2	0.6
- CO[C@H]1CN(C)C(=O)c2ccc(NS(C)(=O)=O)cc2OC[C@@H](C)N(Cc2ccccn2)C[C@@H]1C
 : 3	-2	4.4
- COc1ccc2c3c([nH]c2c1)[C@@H](CO)N(C(=O)CN(C)C)CC31CCN(C(=O)c2ccncc2)CC1
 : 16	2	14
- C[C@H]1CN([C@@H](C)CO)C(=O)c2cc(NC(=O)c3ccncc3)ccc2O[C@@H]1CN(C)S(=O)(=O)c1ccc(Cl)cc1
 : -2	-3	0.7
- CN(C)C(=O)c1cccc(-c2ccc3c(c2)[C@H]2[C@H](CCN2C(=O)c2ccccc2F)[C@@H](CO)N3)c1
 : -1	4	-4.8
- C/C=C/c1ccc2c(c1)O[C@H](CN(C)C(=O)c1ccccn1)[C@@H](C)CN([C@H](C)CO)S2(=O)=O
 : 2	-5	7.2
- CC(C)C#Cc1ccc2c(c1)O[C@H](CN(C)C(=O)c1ccncc1)[C@@H](C)CN([C@H](C)CO)S2(=O)=O
 : 2	1	1.1
- COc1ccc2c3c([nH]c2c1)[C@@H](CO)N(Cc1ccccc1OC)CC31CN(S(C)(=O)=O)C1
 : ?	/	/
- COc1ccc(-c2cccc(-c3nc(C(=O)N(C)C)cc4c3[C@H](CCO)N([S@@](=O)C(C)(C)C)C4)c2)cc1
 : -2	1	-2.7
- Cc1ccccc1S(=O)(=O)N(C)C[C@H]1OCc2cn(nn2)CCCC(=O)N([C@@H](C)CO)C[C@H]1C
 : 2	-1	2.7
- CN(C)C(=O)c1ccc(-c2ccc([C@H]3[C@@H](C#N)N(C(=O)C4CCOCC4)[C@H]3CO)cc2)cc1
 : 0	-2	1.7
- CO[C@H](CN(C)S(=O)(=O)c1ccc(Cl)cc1)[C@@H](C)CN(C(=O)Nc1ccccc1F)[C@H](C)CO
 : 1	3	-1.2
